eIF4H inh – human eIF4H binding inhibitors, primary screen, translation initiation inhibitor project, biochemical, uHTS, fluorescence polarization | eIF4H fluorescence polarization binding assay | Eukaryotic translation initiation factor 4H (Homo sapiens), Q15056 | 290,000 compounds, 0.94% hits | inhibition, % at 35 µM | AID 2012, 2009;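 active means 50% or more with normal probe brightness, or confirmed in later tests; inconclusive means above 50% with abnormal brightness, or retests that disagree; inactive means below 50% or failed in later tests; about a fifth of its hits are not listed in these tables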;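 further: calls also rest on retests at 20 µM and on dose response follow-up; 0% = protein and probe with vehicle and 100% = probe without protein; strong numbers were not always called active; many hits fall short of the cut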
MT1-MMP act inh – blockers of MT1-MMP proenzyme processing, primary screen, HT1080 RFP-PRO-GFP cells, GFP/RFP fluorescence; GFP/RFP ratio fluorescence, overnight; percent of plate control window, DMSO zero; GFP/RFP ratio change, % at 20 µM; 360,000 compounds, 0.061% hits;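 active means GFP/RFP ratio change of at least 30% with cell ATP level not reduced by more than half and red fluorescence within 50% of control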; further: strong numbers were not always called active
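Material: RFP-PRO-GFP reporter HT1080 cells. Dosing: single-point 20 µM compound, 1% DMSO. Controls: DMSO and RFP-L50D-GFP cell wells. Timing: cells overnight before dosing, compound overnight, 37 °C, 5% CO2. Measure: GFP/RFP fluorescence ratio.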
CSC inhib – cancer stem cell viability inhibitors, primary screen, luminescence. cancer stem cell-like cells viability. inhibition, % at 7.5 µM. 300,000 compounds, 1.1% hits;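 active means mean at 75% or more and at least half the replicates too; inconclusive means mean and replicates disagree; tested in HMLE shEcad cells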;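 further: 0% = median of negative and 100% = median of positive control wells; the first replicate is given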
Env fusion inh – inhibitors of HIV-1 Env-driven cell-cell fusion, primary screen, HeLa-JRFL effector, CEM21 target cells, luciferase; inhibition, % at 12.3 µM; 360,000 compounds, 1.1% hits;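 active means mean replicate inhibition score of at least 50 and every replicate individually at or above 50; inconclusive means only one of the two criteria met; inactive means mean below 50 and not all replicates reaching 50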;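 further: 0% = plate neutral controls and 100% = maraviroc near 300 nM; one replicate is shown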
PABP polyA inh – PABP poly(A) RNA binding inhibitors, primary screen, biochemical, fluorescence polarization, uHTS. inhibition, % at 35 µM. 290,000 compounds, 1% hits;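 active means 50% or more with normal probe brightness, or confirmed in later tests; inconclusive means above 50% with abnormal brightness, or retests that disagree; inactive means below 50% or failed in later tests; about a fifth of its hits are not listed in these tables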;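 further: calls also rest on retests at 20 µM and on dose response follow-up; controls were probe without protein and protein plus probe with vehicle; some compounds called inactive have numbers as strong as hits; many hits fall short of the cut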
Yeast UUG start – modulators of yeast start codon fidelity, primary screen, whole organism, S. cerevisiae, single point, plate reader; activity score, % at 18.7 µM; 350,000 compounds, 0.13% hits; S. cerevisiae UUG-firefly luciferase reporter, luminescence/redox ratio; AID 602363, 2012;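 active means replicate mean at a twofold rise or more, about +100% in these data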;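 further: firefly luciferase made from a UUG start codon reports start codon fidelity; reporter light over untreated wells divided by growth signal over untreated wells; some hits fall short of that in this replicate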
Rce1 inhib – yeast Rce1p protease inhibitors, primary screen, biochemical, fluorescence, cell-free homogeneous; yeast membranes, quenched prenylated peptide cleavage fluorescence; AID 2563, 2010; calls only; 290,000 compounds, 0.27% hits; CAAX prenyl protease 2 (Saccharomyces cerevisiae (strain ATCC 204508 / S288c)), Q03530;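 active means fall in fluorescence gain of 50% or more versus controls, with final raw signal at or below 3038400; inconclusive means same 50% fall but final raw signal above 3038400; inactive means fall in fluorescence gain under 50%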;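 further: plate controls were neutral control wells for no effect and wells lacking membranes for full effect; tested at 10 µM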
Target sequence (Q03530 whole entry, looked up): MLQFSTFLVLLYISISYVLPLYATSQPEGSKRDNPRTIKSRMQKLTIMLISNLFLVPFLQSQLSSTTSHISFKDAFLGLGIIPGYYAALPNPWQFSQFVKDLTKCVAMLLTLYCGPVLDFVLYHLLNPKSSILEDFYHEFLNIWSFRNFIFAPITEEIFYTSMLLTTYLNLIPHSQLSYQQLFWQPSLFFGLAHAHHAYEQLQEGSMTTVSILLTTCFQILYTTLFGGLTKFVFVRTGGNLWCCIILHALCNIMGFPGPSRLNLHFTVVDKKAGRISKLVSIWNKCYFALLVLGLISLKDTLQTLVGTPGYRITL
MT1-MMP act inh RFP – also measured in MT1-MMP act inh; calls as there; RFP signal change, %; measured here: RFP expression control read;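 0 = vehicle wells; hits needed this value within 50% of zero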
Active calls of the source: *; i = inactive; ? = inconclusive; . = no result given; & = joins results of further samples. A portion of the library; rates above refer to the full screens.

The first 2 records (preview)
SMILES	eIF4H inh	MT1-MMP act inh	MT1-MMP act inh RFP	CSC inhib	Env fusion inh	PABP polyA inh	Yeast UUG start	Rce1 inhib
COc1ccc(C(=O)Nc2ccccc2SCc2cc(=O)n3nc(C)sc3n2)cc1OC	1	1	3	.	1	4	-4	i
COc1ccc(NC(=S)Nc2cccc(C(F)(F)F)c2)c(C)c1	1	4	1	-2	1	-7	.	i

The whole of this part, from the first entry:
SMILES	eIF4H inh	MT1-MMP act inh	MT1-MMP act inh RFP	CSC inhib	Env fusion inh	PABP polyA inh	Yeast UUG start	Rce1 inhib
COc1ccc(C(=O)Nc2ccccc2SCc2cc(=O)n3nc(C)sc3n2)cc1OC	1	1	3	.	1	4	-4	i
COc1ccc(NC(=S)Nc2cccc(C(F)(F)F)c2)c(C)c1	1	4	1	-2	1	-7	.	i
Cc1ccc(-c2nc3ccccc3[nH]2)s1	14	0	-5	26	.	28	-6	?
O=C(c1ccc(Cl)nc1)N1CCN(S(=O)(=O)c2ccc3c(c2)OCCO3)CC1	.	-4	-6	2	.	.	-12	.
Cc1ccc(C)c(N2N=C(C(=O)Nc3cccc(S(=O)(=O)N4CCCCC4)c3)CCC2=O)c1	.	-1	-1	.	1	.	-16	.
O=C(NC(Cc1c[nH]c2ccccc12)c1nnc2n1CCCCC2)c1ccccc1 (stereo not drawn)	12	2	0	-14	-7	6	-15	i
COC(=O)C1=C(N)OC2=C(C(=O)CC(C)(C)C2)C1c1cccs1 (stereo not drawn)	-5	-2	2	4	3	8	-15	i
Cc1cc(C)cc(COn2ccnc2)c1	-4	1	2	-2	.	-5	.	i
Cc1cc(=O)[nH]c(SCC(=O)N2CCN(C(=O)c3ccco3)CC2)n1	.	0	2	-14	.	.	4	.
C/C(=N\NC(=O)c1ccccc1O)c1c(O)cc(C)oc1=O	12	-24	-11	-1	-43	4	-23	i
COc1ccc(S(=O)(=O)CCC(=O)N2CCN(c3ccc([N+](=O)[O-])cc3)CC2)cc1	-6	5	-19	-20	-3	7	-7	i
O=C(NC(=S)N1CCCc2ccccc21)c1ccc([N+](=O)[O-])cc1	13	3	-1	-8	-13	26	.	i
O=C(NNc1nc2ccc(Cl)cc2s1)c1cc(-c2cccs2)nc2ccccc12	11	6	-3	109*	14	15	-8	i
CC(C)(C)c1ccc(S(=O)(=O)NC(=O)C2(C)CCN2C(=O)C2(c3ccc(Cl)cc3)CC2)cc1 (stereo not drawn)	.	4	2	.	-28	.	-9	.
O=C(CSc1nc2ccccc2n1S(=O)(=O)c1ccccc1)N1CCCCC1	-7	-3	2	-5	.	0	-21	i
Cc1cccc(NS(=O)(=O)c2ccc(Oc3ccccc3)cc2)n1	5	7	2	-3	17	2	10	i
CC1(C)Cc2c(sc3c2c(=N)n(Cc2ccco2)c(=O)n3Cc2ccccc2)CO1	-4	-1	-2	1	.	-1	15	i
CCSc1nnc(SCC(=O)NNC(=O)c2ccccc2F)s1	-8	-1	4	0	1	-17	-9	i
COc1cc(CNc2nc3ccccc3n2C)cc(OC)c1OC	7	5	2	-15	-10	-6	.	i
C/C(=C\COc1cc(=O)[nH]c2ccccc12)CCC(O)C(C)(C)O (stereo not drawn)	-2	-6	3	-12	.	-3	-7	i
CC(=O)c1ccccc1NC(=O)COC(=O)CCCN1C(=O)c2cccc3cccc(c23)C1=O	6	1	3	2	28	6	.	i
Cc1cc(-c2cc(C(=O)NC3CCCC3)on2)nc(NCC2CC2)n1	-1	1	1	14	-24	1	-19	i
Cc1nn(C2CCS(=O)(=O)C2)c(Cl)c1/C=C/C(=O)OCC(=O)Nc1ccccc1[N+](=O)[O-] (stereo not drawn)	-1	-5	-3	-11	25	21	.	i
COc1cccc(OC)c1C(=O)N1CCN(C(=O)c2ccc(-c3ccccc3)cc2)CC1	-9	-1	-3	-5	1	-10	-10	i
CC(NC(=O)c1ccc(CS(C)(=O)=O)cc1)c1ccc(-c2ccccc2)cc1 (stereo not drawn)	0	3	2	-4	7	-6	-1	i
O=S(=O)(NC1CCCCCCC1)c1cccs1	-14	-2	16	-8	-36	0	.	i
Cc1ccc(S(=O)(=O)N2CCCCC2)cc1NC(=O)COC(=O)C1=COCCO1	-1	4	6	-5	7	0	-13	i
O=C1CN=C(Nc2ccccc2)N1Cc1cccs1	-4	-1	1	-7	-5	5	-11	i
NC(=O)C1CCN(C(=O)c2ccccc2SCC(=O)NCC2CCCCC2)CC1	5	0	4	3	.	27	-7	i
Cc1cc(=O)[nH]c2ccccc12	3	3	4	-4	.	-3	3	i
CCOc1c(Cl)cc(CNCc2ccncc2)cc1OC	-4	-1	-12	2	10	21	-13	i
NC(=O)c1cccc(CS(=O)(=O)c2ccc(Cl)cc2)c1	-2	2	2	1	6	-4	-5	i
Cc1cc(OCC(=O)Nc2cnn(CCCC(=O)O)c2)ccc1Cl	0	-2	-2	-2	-5	0	-13	i
O=[N+]([O-])c1ccccc1/C=N/n1c(C2CCCCC2)n[nH]c1=S	8	0	-2	-5	19	37	.	i
CS(=O)(=O)N(CC(=O)N1CCOCC1)c1ccccc1Br	-6	1	5	-11	2	9	-8	i
CNC(=O)C1(C)CCN1C(=O)c1ccccc1CCc1ccccc1 (stereo not drawn)	.	0	3	.	-12	.	-5	.
Cc1ccc2cc(C)c3nnc(SCC(=O)Nc4nc5c(s4)CCCC5)n3c2c1C	-10	-2	-4	4	-325	1	-1	i
CC(=O)N(c1ccccc1)C(C(=O)c1ccccc1)c1ccccc1 (stereo not drawn)	.	-8	4	.	-498	.	-23	.
O=C1/C(=C/c2cccc(Br)c2)SC(=S)N1CCC(=O)N(CCO)c1ccccc1	8	3	0	47	10	-1	-8	i
NC1=CC(=O)C(=O)c2cccnc21	.	2	-3	.	28	.	-80	.
Cc1cc(-c2nnc(SCC(=O)Nc3ccccc3)n2C)no1	-1	4	3	0	-31	12	.	i
O=C(CNc1cccc(S(=O)(=O)N2CCCC2)c1)Nc1cccc(Br)c1	.	-5	-28	-6	36	.	8	i
O=C(Nc1ccc(Cl)cc1)Nc1ccc(N2CCCC2)c(S(=O)(=O)Nc2ccccc2Cl)c1	-10	-16	-33	2	32	-2	.	i
CCN(C(=O)COC(=O)c1ccc(C=O)cc1)c1c(N)n(Cc2ccccc2)c(=O)[nH]c1=O	.	2	5	-7	?	.	-16	.
CC(C)(C)c1ccccc1NC(=O)c1ccc(-n2cncn2)c([N+](=O)[O-])c1	.	-7	-1	6	10	.	-6	i
CC(C)N(C(=S)NCc1ccccc1)C(C)C	-6	-2	1	-3	5	2	-6	i
O=C(Cc1ccc(Cl)cc1)SCc1ccccc1	.	2	3	5	.	.	-22	.
Cc1ccc(N2CC(O)=C(c3ccccc3)C2=N)cc1	-4	0	5	4	12	5	.	i

Complete entries, looked up by structure. Order of screens: eIF4H inh | MT1-MMP act inh | MT1-MMP act inh RFP | CSC inhib | Env fusion inh | PABP polyA inh | Yeast UUG start | Rce1 inhib
Profile of O=C(CNc1cccc(S(=O)(=O)N2CCCC2)c1)Nc1cccc(Br)c1 → . | -5 | -28 | -6 | 36 | . | 8 | i
Profile of CC1(C)Cc2c(sc3c2c(=N)n(Cc2ccco2)c(=O)n3Cc2ccccc2)CO1 → -4 | -1 | -2 | 1 | . | -1 | 15 | i
Profile of COc1ccc(NC(=S)Nc2cccc(C(F)(F)F)c2)c(C)c1 → 1 | 4 | 1 | -2 | 1 | -7 | . | i
Profile of O=C(NNc1nc2ccc(Cl)cc2s1)c1cc(-c2cccs2)nc2ccccc12 → 11 | 6 | -3 | 109* | 14 | 15 | -8 | i
Profile of Cc1nn(C2CCS(=O)(=O)C2)c(Cl)c1/C=C/C(=O)OCC(=O)Nc1ccccc1[N+](=O)[O-] (stereo not drawn) → -1 | -5 | -3 | -11 | 25 | 21 | . | i

The results go on.
SMILES	eIF4H inh	MT1-MMP act inh	MT1-MMP act inh RFP	CSC inhib	Env fusion inh	PABP polyA inh	Yeast UUG start	Rce1 inhib
CC(C)Cc1nc(SCC(=O)Nc2nnc(CC(C)C)s2)n[nH]1	-8	4	1	-4	11	-3	.	i
Cc1ccsc1C(C(=O)NC(C)(C)C)N(Cc1ccco1)C(=O)c1csnn1 (stereo not drawn)	7	0	2	-11	27	-2	1	i
Cc1nnc(SCC(=O)Nn2cnnc2)s1	-5	-3	-2	-2	.	5	-7	i
O=C(Nc1ccc(-c2cn3ccsc3n2)cc1)C1CC1	12	3	-2	-2	-292	8	-31	i
Nc1ccc(C(=O)c2cccs2)cn1	6	2	5	-4	-19	0	-11	i
COc1cccc2sc3cc(C#CC4(O)CCCCC4)ccc3c(=O)c12	.	5	-1	?	-126	.	-23	.
COc1cc(O)cc2cc3c(c(O)c12)C(=O)CC(C)(O)O3 (stereo not drawn)	72*	-21	-8	-1	.	62*	-16	.
COc1ccc(N2CCN(C(=O)c3ccc(S(=O)(=O)N4CCCC4)cc3)CC2)cc1	0	-2	-1	.	-18	10	-9	i
O=c1[nH][nH]cc1C=Nc1ccc(Cl)cc1	-3	2	0	.	0	2	.	i
COc1cc(OC)cc(-c2c(-c3ccc(F)cc3)c3cc(-c4ccc(OC)nc4)ccc3n2C)c1	.	-2	-4	.	37	.	-15	.
CCC(=O)Nc1nnc(CSCc2ccc(F)cc2)s1	6	2	3	0	.	8	-2	i
Cn1c(SCC(=O)N2CCCCCC2)nc2c([nH]c3ccccc32)c1=O	-3	-2	-4	-20	-62	-5	-10	.

Quoted at random: four compounds from above.
SMILES	eIF4H inh	MT1-MMP act inh	MT1-MMP act inh RFP	CSC inhib	Env fusion inh	PABP polyA inh	Yeast UUG start	Rce1 inhib
COc1ccc(NC(=S)Nc2cccc(C(F)(F)F)c2)c(C)c1	1	4	1	-2	1	-7	.	i
CC1(C)Cc2c(sc3c2c(=N)n(Cc2ccco2)c(=O)n3Cc2ccccc2)CO1	-4	-1	-2	1	.	-1	15	i
Cc1cc(=O)[nH]c2ccccc12	3	3	4	-4	.	-3	3	i
Cc1ccc(N2CC(O)=C(c3ccccc3)C2=N)cc1	-4	0	5	4	12	5	.	i

(further entries)
SMILES	eIF4H inh	MT1-MMP act inh	MT1-MMP act inh RFP	CSC inhib	Env fusion inh	PABP polyA inh	Yeast UUG start	Rce1 inhib
O=C(NNS(=O)(=O)c1ccccc1)c1cnn(-c2ccccc2)c1-n1cccc1	-5	6	3	-6	3	-8	.	i
CN(C)CCCC1(O)c2ccccc2C=Cc2ccccc21	-2	-5	-2	-7	-112	20	.	i
Cc1ccc(C(=O)NCCONC(=O)c2ccc(C)cc2)cc1	-8	0	-2	-8	3	-2	4	i
C[C@H]1COC(=O)CC/C=C\C[C@H](CC(=O)N(CCO)Cc2ccccc2)C(=O)N1	.	1	3	-11	-18	.	-14	.
CCc1c(C2(O)CCCCC2)[nH]c2cnccc12	.	-4	1	-27	12	.	-3	.
CCOc1cc2c3c(c1)C1(C(=O)N3C(C)(C)C=C2C)C(C#N)=C(N)Oc2cc(O)ccc21 (stereo not drawn)	8	-7	-5	17	-65	-5	-2	i
CC(C)(C)NC(=O)c1ccncc1	-9	4	2	0	.	-5	-19	i
C[C@@H]1CN([C@@H](C)CO)C(=O)CCCn2nncc2CO[C@H]1CN(C)C(=O)OCc1ccccc1	.	0	7	.	-25	.	3&-3	.
